Vaccinia mCherry: qHTS for Stage-Specific Inhibitors of Vaccinia Orthopoxvirus: mCherry Reporter Primary qHTS; Vaccinia virus mCherry reporter infection, fluorescence; about a quarter of the inactives have no number; Potency, µM (highest dose often 36.5 µM), without a hit: at the highest dose activity change, negative = inhibition, actives largely listed as inhibitors; hit rate 0.63% among 310,000; active = well fitted inhibition curve with a large enough effect; inconclusive = small, poorly fitted or top-dose-only effect; inactive = no such curve, though single readings can be large or run the other way; tested in A549 cells; also: nearly all actives have a fitted effect of over 35% in size; inactives centre near -10
VACV Venus inh: qHTS for Stage-Specific Inhibitors of Vaccinia Orthopoxvirus: Venus Reporter Primary qHTS; Vaccinia virus Venus reporter expression, fluorescence; Potency, µM (series often up to 36.5 µM), for inactives: top-dose activity change, negative = inhibition, usual class: inhibitors; hit rate 0.46% among 330,000; active means well fitted inhibition curve with a large enough effect; inconclusive means small, poorly fitted or top-dose-only effect; inactive means no such curve, though single readings can be large or run the other way; tested in A549 cells; also: nearly all actives have a fitted effect of over 30% in size; inactives centre near -10
* marks the source's active call; other numbers are inactive results; i = inactive; ? = inconclusive; · = not tested or not shown; & = joins results of further samples; [ ] = another dose, or the depositor's remark. % is scaled to controls: 0 for no effect and ±100 for the full control effect; potency is read from the fitted curve at half-maximal effect.

| SMILES | Vaccinia mCherry | VACV Venus inh |
| --- | --- | --- |
| N#CCCN(C(=O)COC(=O)c1cc(S(=O)(=O)N2CCOCC2)ccc1Cl)c1ccc(F)cc1 | i | -11% |
| NS(=O)(=O)c1ccc(CCNC(=O)c2ccc(-c3ccccc3)cc2)cc1 | -11% | -7% |
| O=C1CNC(=O)/C1=C/c1ccc(Br)cc1 | i | 0% |
| FC(F)(F)c1cnc(N/N=C/c2ccncc2)c(Cl)c1 | -2% | -8% |
| COc1ccccc1C(=O)NC1CCN(C(=O)Nc2ccc(C)cc2)CC1 | -13% | -4% |
| CCCCCCCC/C=C\C/C=C\C/C=C\CCCC(=O)O | i[3.33 µM] | -6%[3.33 µM] |
| Cc1ccc(Nc2nc(N)nc(CSc3nnc(-c4ccncc4)o3)n2)cc1 | -2% | -6% |
| COc1ccccc1OCC(O)CN1C(=O)NC(C)(C)C1=O (configuration not stated) | 14% | -3% |
| Cn1c(COc2ccc(Cl)cc2)nnc1SCC(=O)Nc1ccc2c(c1)CCC2 | -7% | -2% |
| COc1cc(=O)n2c(c1C(=O)N(C)Cc1nonc1C)CCN(C(=O)c1ccc(C)c(C)c1)CC2 | -9% | 2% |
| CCc1noc(C)c1C(=O)NNC(=O)COc1ccc(C)cc1 | -7% | -12% |
| COc1ccc(CNc2ccc([N+](=O)[O-])cc2C)cc1 | -3% | -8% |
| CC(C)S(=O)(=O)c1cnc(N2CCOCC2)nc1N | 2% | 2% |
| CC1CN(C)C(C)c2c1oc1ccc([N+](=O)[O-])cc21 (configuration not stated) | 4% | 4% |
| CCS(=O)(=O)N1CCC(C(=O)NC2CCCCCCC2)CC1 | -23% | -18% |
| CCCOC(=O)/C(=C\C=C\c1ccco1)NC(=O)c1ccccc1 | ? | -14% |
| CC1(C)Cc2ccccc2-c2nc3n(c(=O)c21)CCS3 | i | -11% |
| Nc1c(Cl)c(Cl)nc(C(=O)N/N=C/c2cccnc2)c1Cl | -9% | -20% |
| Cn1c(=O)oc2cc(S(=O)(=O)N3CCCC(C(=O)NCc4cccs4)C3)ccc21 (configuration not stated) | i | -22% |
| COc1ccc(-c2cc(-c3ccccc3)nc(N)n2)c(O)c1 | ? | ? |
| COc1ccc(-n2c(=S)[nH]c3cc(C(=O)NC4CCCCC4)ccc3c2=O)c(OC)c1 | i | 1% |
| Cc1[nH]c(=S)c(C#N)c(C)c1C(=O)Nc1ccccc1 | · | ? |
| COc1ccccc1/C=C/C(=O)OCC(=O)c1c(N)n(C)c(=O)n(C)c1=O | -16% | -15% |
| CC(C)NC(=O)CCCC(=O)NC(C)C | i | -2% |
| CN(C)c1ccc(Nc2nc(N)c3ccccc3n2)cc1 | ? | -27% |
| Cc1ccc(CNC(=O)CNC(=O)c2ccc(Br)o2)cc1 | -6% | -8% |
| COc1ccc(CNC(=O)c2cc(=O)c3cc(C)ccc3o2)cc1 | -9%&-6% | -15%&-1% |
| CSc1ncccc1C(=O)NCCc1ccccc1 | i | -3% |
| CCC(C)NC(=O)c1ccc2c(c1)sc1nc(-c3ccc(OC)cc3)cn12 (configuration not stated) | ? | ? |
| CN(C)CCCN(C(=O)CCSc1ccccc1)c1nc2cc3c(cc2s1)OCO3 | ? | ? |
| C=CCNC(=O)CCCOc1ccc(C)cc1 | · | 28% |
| S=c1[nH]nc(-c2ccccn2)n1/N=C/c1cccc2ccccc12 | -12% | -6% |
| COc1ccc(NC(=O)c2cc([N+](=O)[O-])ccc2NC(=O)CNC2CCCCC2C)c(OC)c1 (configuration not stated) | -10% | -1% |
| CCc1ccc(N2CC(C(=O)N/N=C/c3cccc([N+](=O)[O-])c3)CC2=O)cc1 (configuration not stated) | -16% | ? |
| COc1ccccc1CCC(=O)O | -9% | -6% |
| Cc1ccc(C)c(NC(=O)Cn2c(SCC(=O)NCc3ccccc3)nc3ccccc32)c1 | -20% | -2% |
| CC1(C)C(O)CC(O)[C@]2(C)C1CC(=O)[C@]1(C)C2CC[C@@]2(C)C(c3ccoc3)OC(=O)C3OC321 (some centres not stated) | -13% | -7% |
| Cc1sc2nc(C3CC3)nc(SCC(=O)NCc3ccco3)c2c1C | -4% | -25% |
| O=C1CC(=O)N(Cc2ccccc2)C(=O)N1Cc1ccccc1 | -11% | 10% |
| Cc1[nH]n(C(N)=S)c(=O)c1C(c1ccccc1)C(C#N)C#N (configuration not stated) | · | 6% |
| C=CCNC(=S)NNC(=O)CCC(O)CCCCC (configuration not stated) | · | -1% |
| CC1(C(=O)NS(=O)(=O)c2ccccc2)CCN1C(=O)C/C=C/c1ccccc1 (configuration not stated) | -14% | -15% |
| CCOC(=O)C1CCCN(C(=O)c2cnn3c(C(F)(F)F)cc(-c4ccccc4)nc23)C1 (configuration not stated) | -11% | -3% |
| O=S(=O)(c1cnc[nH]1)N1CCCCCC1 | -22% | -4% |
| C=CCn1c(SCc2ccc(C#N)cc2)nnc1-c1ccc(C)cc1 | i | -13% |
| COCc1c(C(=O)N2CCC(N(C)C)C2)cnn1-c1ncc2c(n1)-c1ccccc1CCC2 (configuration not stated) | -10% | -2% |
| COc1ccccc1C(=O)NCCC(=O)N(C)CC(=O)Nc1ccc(Cl)cc1 | -23% | -19% |
| COC(=O)c1ccc(-c2nc3ccc(C)cc3o2)cc1 | -11% | -10% |
| O=C(O)c1cnc2ccc(Cl)cc2n1 | -19% | -16% |
| O=C(NCc1ccccc1)C(c1cc2ccccc2o1)n1c(=O)c(-c2ccccc2)nc2ccccc21 (configuration not stated) | -12% | -6% |

Next part
| SMILES | Vaccinia mCherry | VACV Venus inh |
| --- | --- | --- |
| CCOc1ccc(NC(=S)N(CCc2c(C)[nH]c3ccc(C)cc23)Cc2ccncc2)cc1 | -7% | -15% |
| Cc1cc2[nH]c(=O)c(=O)[nH]c2cc1S(=O)(=O)N1CCN(c2cccc(Cl)c2)CC1 | -16%&-4% | -5%&6% |
| COC(=O)C1(CC2CC(c3ccncc3)=NO2)CCN(C(=O)OC(C)(C)C)CC1 (configuration not stated) | i | -10% |
| CC(c1ccon1)N(C)Cc1cn(C)nc1-c1ccc2c(c1)OCCO2 (configuration not stated) | i | 13% |
| Nc1ccc2nc(C3CCCCC3)[nH]c2c1 | -24% | -6% |
| Cc1c2c(n3c(nc4ccccc43)c1C#N)N(CCN(C)C)CC2 | i | 0% |
| Cc1ccc(CNC(=O)CSc2nc3ccsc3c(=O)n2Cc2ccccn2)cc1 | -10% | -3% |
| Nc1nc(Cl)nc2c1ncn2C1OCC(O)C(O)C1O (configuration not stated) | -18% | -10% |
| COc1ccc(OCC(=O)N2CCN(S(=O)(=O)c3ccc4c(c3)OCCO4)CC2)cc1 | i | -8% |
| CCC1Oc2ccccc2N(CC(=O)NCc2ccccc2)C1=O (configuration not stated) | -7% | -9% |
| O=C(COC(=O)Cc1c(F)cccc1Cl)Nc1ccc2[nH]c(=O)[nH]c2c1 | -6% | -27% |
| CCC(=O)N1CCc2cc(S(=O)(=O)NCCN3CCC(C)CC3)ccc21 | -9% | -11% |
| CC1=CC(=NOC(=O)c2cccc([N+](=O)[O-])c2)C=C(C)C1=O | i | 21% |
| CCCn1c(SCC(=O)NCc2cccs2)nc2c1c(=O)n(C)c(=O)n2C | -8% | -9% |
| COC(=O)[C@H](C)NC(=O)Nc1cccc(Br)c1 | -4% | -20% |
| COCC(=O)Nc1ccc(-c2cn3cccnc3n2)cc1 | ? | -11% |
| CC(C)Sc1nnc2n(CCc3ccccc3)c(=O)c3c4c(sc3n12)COC(C)(C)C4 | i | -3% |
| Cc1cc2c(cc1S(=O)(=O)NCCc1ccccc1)NC(=O)CO2 | -11% | -9% |
| COc1ccccc1C(=O)C(=O)c1ccccc1OC | -2% | 5% |
| COC(=O)CSC1=NS(=O)(=O)c2ccccc21 | i | -19% |
| COc1ccc(S(=O)(=O)N2CCOCC2)cc1NC(=O)CCc1c[nH]c2ccccc12 | -2% | -13% |
| CCOC(=O)c1ccc(-c2ccc(/C=C(\C#N)C(=O)Nc3c(C)cccc3Cl)o2)cc1 | -13% | -19% |
| CCOc1ccc(-c2cc3c(=O)n(CC(=O)NCc4ccc(C)cc4)ccn3n2)cc1 | 1% | 6% |
| c1ccc(SC23CCCCN(CCC2)[C@]32CO2)cc1 (some centres not stated) | 1% | 0% |
| CC(C)(C)N(NC(=O)Nc1ccccc1)C(=O)c1ccccc1 | -14% | -8% |
| Cc1cc(=O)[nH]c(NN=Cc2c(Cl)cccc2Cl)n1 | -9% | -13% |
| Cc1csc(SCC(=O)Nc2nnc(C)s2)n1 | -6% | -2% |
| Cc1ccc(-c2cc(C(=O)NCCN3CCOCC3)c3ccccc3n2)o1 | -2% | 5% |
| O=C1NC(=O)/C(=C\c2ccc(O)cc2O)S1 | -1% | -5% |
| COc1ccc(/C=C/c2cc(=O)c3cc(Cl)ccc3o2)cc1 | -17% | 187%[activator] |
| COc1ccc(Cl)cc1NC(=O)CCCC(=O)c1ccccc1 | -10% | -20% |
| COc1cc(C(=O)NCc2nnc(SCC(=O)NC3CCCC3)o2)cc(OC)c1OC | i | -14% |
| CCn1c(COc2cccc(C)c2)nnc1SCC(=O)Nc1cccc(C(=O)O)c1 | · | -9% |
| NC(=O)CC(NC(=O)c1ccccc1)c1ccc(N2CCN(c3ccc(F)cc3)CC2)c([N+](=O)[O-])c1 (configuration not stated) | -19% | ? |
| CCOC(=O)[C@]12CCC=C1N(CCC1=CCCCC1)C(=O)[C@H](CC(=O)N1CCCCC1)C2 | -4% | 7% |
| O=C1/C(=C/N(C(=O)c2ccco2)c2ccc(Br)cc2)Sc2ccccc21 | 218%[activator] | 16% |
| Cc1ccc2c(c1)C(=O)C(=O)N2Cc1ccc(C(F)(F)F)cc1 | -19% | ? |
| Cc1cc(C(=O)CCl)c(C)n1CCc1ccc(F)cc1 | -8% | -2% |
| O=C(NC1CC(=O)N(c2ccc(F)cc2)C1)c1ccc(S(=O)(=O)N2CCOCC2)cc1 (configuration not stated) | -10% | -17% |
| COc1ccnc(N=CNOCc2ccc(Cl)cc2)c1C#N | -3% | -5% |
| COc1ccc(C(=O)N/N=C/c2ccc(OC)c(COc3ccc(F)cc3F)c2)cc1 | -15% | -27% |
| CC(COC(=O)c1ccccc1)(COC(=O)c1ccccc1)/[N+]([O-])=C/c1ccccc1 | -15% | -4% |
| CCc1ccc(/C=C/C(=O)c2c(C)cc(C)[nH]c2=O)cc1 | · | ? |
| Cc1cc(OCC(C)C)ccc1/C(O)=C1/C(=O)C(=O)N(Cc2cccnc2)C1c1ccncc1 (configuration not stated) | · | -5% |
| Cc1ccccc1-n1nc(C(=O)O)cc1-c1ccccc1 | -10% | -10% |
| Cc1ccc(N(C(C)C(=O)Nc2ccc(S(=O)(=O)N3CCOCC3)cc2)S(C)(=O)=O)cc1C (configuration not stated) | · | ? |
| O=c1ncn(-c2ccccc2C(F)(F)F)c2ncccc12 | i | -11% |
| CC(=O)Nc1ccc(NC(=O)COC(=O)c2ccc(Cl)nc2)cc1 | i | 3% |
| CCOc1cc(/C=C2/SC(=Nc3ccccc3)N(Cc3cccnc3)C2=O)ccc1OCC#N | -18%[1.46 µM] | -26% |
| COCCn1c(SCC(=O)NC2CCCC2)nnc1-c1ccncc1 | i | -4% |

Profiles, looked up by structure.
COCCn1c(SCC(=O)NC2CCCC2)nnc1-c1ccncc1 reads Vaccinia mCherry = i; VACV Venus inh = -4%
Cc1cc(C(=O)CCl)c(C)n1CCc1ccc(F)cc1 reads Vaccinia mCherry = -8%; VACV Venus inh = -2%
Cc1ccc2c(c1)C(=O)C(=O)N2Cc1ccc(C(F)(F)F)cc1 reads Vaccinia mCherry = -19%; VACV Venus inh = ?

The results go on.
| SMILES | Vaccinia mCherry | VACV Venus inh |
| --- | --- | --- |
| COc1cccc(OC)c1CN1CCCC(C(=O)c2ccccc2SC)C1 (configuration not stated) | -8% | -9% |
| CON(C)C(=O)/C=C/CCCCNC(=O)OC(C)(C)C | -10% | -19% |
| NNC(=O)c1n[nH]c2c1CC(C1CCCCC1)CC2 (configuration not stated) | -6% | -15% |
| c1ccc(C[C@H]2CN=C(Nc3ccccc3)N2CC2CCCC2)cc1 | -1% | -4% |
| COc1ccccc1Oc1c(C)oc2c(CN(C)C)c(O)ccc2c1=O | -4% | -11% |
| C=CCCCCCCCC(=O)OC | -11% | -13% |
| COc1ccc(/C=C/C(=O)OCC(=O)Nc2cc(S(=O)(=O)N(C)C)ccc2Cl)cc1 | -2% | -8% |
| Cc1ccc2nc(NS(=O)(=O)c3cn(C)nc3C)sc2c1 | i | -22% |
| CC(C)(C)OC(=O)N1CCC(NC(=O)c2nc[nH]c2C(=O)NC2CCN(C(=O)OC(C)(C)C)CC2)CC1 | -3% | ? |
| COc1ccccc1C(=O)NCC(=O)N/N=C/c1ccncc1 | -6% | 10% |
| Cc1cccc(OCC(=O)Nc2cc(NC(=O)COc3cccc(C)c3)cc(C(=O)O)c2)c1 | 0% | -13% |
| O=C(Nc1cccc(-c2csc(Nc3ccc(Cl)cc3)n2)c1)c1cccc(C(F)(F)F)c1 | ? | ? |
| COc1cccc(C2Nc3cccc4cccc(c34)N2)c1 | -8% | -3% |
| Cc1ccc(CNC(=O)CN(C)S(=O)(=O)c2ccc(Br)s2)cc1 | -9% | -7% |
| COc1ccc(CNC(=O)c2ccc3c(c2)nc2n3CCCCC2)cc1 | -8% | -2% |

Screening results from PubChem.
